# Screening data as filed in PubChem.
# FGF22 binding: FGF22 (human) thermal shift binding. Q9HCT0. AID 651658. recombinant FGF22 thermal shift, SYPRO orange fluorescence; percent of sucrose octasulfate shift, DMSO zero. calls only at 9.99 µM. 340,000 tested, 1.5% active;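 active = melting point raised past a set limit in the mean and every replicate; inconclusive = no clear call; three in four hits are not shown here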
# Target sequence (Q9HCT0 whole entry, looked up): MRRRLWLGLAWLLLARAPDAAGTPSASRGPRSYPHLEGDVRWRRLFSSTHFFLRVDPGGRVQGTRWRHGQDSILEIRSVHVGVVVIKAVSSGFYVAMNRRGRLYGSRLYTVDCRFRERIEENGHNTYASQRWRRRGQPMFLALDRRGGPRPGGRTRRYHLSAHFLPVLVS
# E coli growth: E. coli growth inhibition; Escherichia coli growth, OD600, 23 h; active compounds read low; OD600 absorbance (test concentration not listed); 330,000 tested, 0.21% active; AID 1053175;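 active = OD600 absorbance below the run mean of sample wells minus 3.6 SD, in any replicate, cut at about 0.56 in these data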;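 note: stock transfer was 300 nL into about 60 µL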
# Vif TR-FRET: HIV-1 Vif–A3G interaction blockers – biochemical, TR-FRET, GST-Vif 1-94, biotin-A3G peptide, dose response retest, primary screen (AID 1117319); TR-FRET GST-Vif / biotin-A3G peptide binding; higher % means a stronger effect; test concentration not given here; strong numbers were not always called active; one-dose inhibition, %; IC50 in µM for titrated hits; 260,000 tested, 0.57% active;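 active = above the screen mean plus three standard deviations and confirmed in dose response; inconclusive = results disagree or hit not tested in dose response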;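 note: Vif residues 1-94 fused to GST binding biotinylated APOBEC3G peptide 110-148; 0% = full assay without inhibitor and 100% = GST in place of GST-Vif; retest series ran down from 100 µM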
# HNF4A DNA FP: change in binding of human HNF4 alpha to DNA | AID 1224865 | HNF4a-FITC DNA binding, fluorescence polarization, 1 h | P41235 | activity change, % at 10 µM | 360,000 tested, 0.3% active; in the data active = activity change above about 30%, passing the limit was not always enough;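 note: controls were the assay level and a saturating level of protein; the project sought stronger binding though the title names inhibitors; some compounds called inactive have numbers as strong as hits; positive values seem to mean higher polarization but the record does not say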
# Target sequence (P41235 whole entry, looked up): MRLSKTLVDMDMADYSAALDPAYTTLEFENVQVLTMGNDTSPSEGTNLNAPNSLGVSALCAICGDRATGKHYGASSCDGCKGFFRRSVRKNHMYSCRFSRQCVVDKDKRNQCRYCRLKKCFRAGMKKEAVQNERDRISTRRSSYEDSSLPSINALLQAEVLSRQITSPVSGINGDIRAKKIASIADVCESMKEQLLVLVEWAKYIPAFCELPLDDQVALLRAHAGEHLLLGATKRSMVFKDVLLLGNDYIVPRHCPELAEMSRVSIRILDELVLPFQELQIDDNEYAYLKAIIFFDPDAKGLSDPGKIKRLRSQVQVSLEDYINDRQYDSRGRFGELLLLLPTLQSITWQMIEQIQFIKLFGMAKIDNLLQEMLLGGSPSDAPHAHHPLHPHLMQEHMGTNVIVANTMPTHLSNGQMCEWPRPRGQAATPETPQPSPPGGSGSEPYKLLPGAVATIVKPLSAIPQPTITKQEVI
# Ecoli rRNA inh: selective bacterial rRNA inhibition in E. coli. AID 720706. 350,000 tested, 1.6% active. E. coli WT GFP vs humanized-ribosome RFP mutants, fluorescence, 24 h; active compounds read low; DMSO median 0, no signal -100. GFP signal change (wild-type ribosome), % (test concentration not listed);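 active = significant combined selectivity score with lowered wild-type GFP, culture density cut under 30%, mutant RFP and density less affected; inactive = any of these conditions unmet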; note: one replicate is shown; some compounds called inactive have numbers as strong as hits
# ALR H2O2 inh: human ALR oxidase inhibition via reduced H2O2; P55789; purified ALR, DTT oxidation, H2O2 HRP-luminol luminescence; inhibition, % (concentration not given with the values); 290,000 tested, 3.8% active; AID 485317;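 active = mean and each replicate at 75% or more; inconclusive = only one of the two met; inactive = neither met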;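 note: stock transfer was 7.5 nL into about 7.5 µL; 0% = neutral wells and 100% = wells with inactivated enzyme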
# Target sequence (P55789 whole entry, looked up): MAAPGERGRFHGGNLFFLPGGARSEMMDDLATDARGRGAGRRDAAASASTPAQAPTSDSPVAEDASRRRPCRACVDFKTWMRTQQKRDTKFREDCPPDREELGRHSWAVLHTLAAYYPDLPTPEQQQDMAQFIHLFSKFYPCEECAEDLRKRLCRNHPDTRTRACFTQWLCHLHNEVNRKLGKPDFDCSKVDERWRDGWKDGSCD
# MLL AF4-AF9 inh: blocks AF4 peptide binding to human AF9 | inhibition, % at 10 µM | AlphaScreen, biotin-AF4 peptide binding to FLAG-AF9 | 350,000 tested, 0.47% active | P42568 | AID 651704;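 active = every replicate reaching a set inhibition limit, whatever the replicate mean, cut at about 25% in these data; inconclusive = mean inhibition reaches that limit but some replicates miss it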;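 note: 0% = plate neutral control median and 100% = total signal loss; the record names both 10 and 1 µM as test concentration; the first replicate is given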
# Ecoli rRNA inh OD600: also measured in Ecoli rRNA inh; calls as there; OD600 change, %; measured here: OD600 growth;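 optical density of the mix in the first replicate; 0 = DMSO median and -100 = no signal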
# Ecoli rRNA inh RFP: further read-out of Ecoli rRNA inh, marked with its call; RFP signal change, %; measured here: RFP humanized mutant strains;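 first replicate; 0 = DMSO median and -100 = no signal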
# Numbers without * were called inactive; i = inactive; ? = inconclusive; / = not tested or not shown. A portion of the library; the hit share may differ from the screen's.
# Below each SMILES: FGF22 binding	E coli growth	Vif TR-FRET	HNF4A DNA FP	Ecoli rRNA inh	Ecoli rRNA inh OD600	Ecoli rRNA inh RFP	ALR H2O2 inh	MLL AF4-AF9 inh
> N/C(Cc1ccc([N+](=O)[O-])cc1)=N\OC(=O)c1ccco1
  i	/	0%	-5.6	19	18	5.4	-5	0.0
> COc1ccc(CNC(=O)CCCSc2ccccc2)cc1
  i	0.65	/	1.5	-16	-17	2.7	-7	-0.7
> Cc1ccc(C)c(NC(=O)c2oc(=O)c3ccccc3c2-c2ccccc2)c1
  /	0.69	/	-1.2	/	/	/	4	/
> Cc1cc(F)ccc1S(=O)(=O)Nc1ncnc2sccc12
  i	0.68	0%	0.2	4	0	-6.5	-8	-4.6
> Cc1cccc(C)c1OCC(=O)OCC(=O)c1ccc2c(c1)NC(=O)CO2
  /	0.69	-4%	-0.9	-4	-10	-5.4	-3	/
> CN1C(=O)c2cc(NC(=O)C3CCCC3)ccc2OC[C@@H]2O[C@H](CC(=O)O)CC[C@@H]21
  i	/	/	/	4	6	-1.4	/	-3.0
> Cc1occc1-c1nnc(SC(C)C(=O)Nc2ccccc2F)o1 (configuration not stated)
  i	0.69	-8%	0.4	7	10	-1.2	/	2.9
> CC(c1ccco1)N(C(=O)C12CC3CC(CC(C)(C3)C1)C2)c1ccccn1 (configuration not stated)
  /	0.75	-1%	0.9	/	/	/	-18	/
> COCCN1C(=O)N[C@@H](c2cccs2)C(C(C)=O)=C1C
  i	/	/	-2.4	-2	3	-2.0	1	-1.9
> CO[C@@H]1CN(C)C(=O)c2cc(NC(=O)NC3CCCCC3)ccc2OC[C@H](C)N(C(C)=O)C[C@@H]1C
  i	/	/	/	0	0	-0.1	/	2.5

# The list goes on; it opens with the two that closed the last part.
# Below each SMILES: FGF22 binding	E coli growth	Vif TR-FRET	HNF4A DNA FP	Ecoli rRNA inh	Ecoli rRNA inh OD600	Ecoli rRNA inh RFP	ALR H2O2 inh	MLL AF4-AF9 inh
> COCCN1C(=O)N[C@@H](c2cccs2)C(C(C)=O)=C1C
  i	/	/	-2.4	-2	3	-2.0	1	-1.9
> CO[C@@H]1CN(C)C(=O)c2cc(NC(=O)NC3CCCCC3)ccc2OC[C@H](C)N(C(C)=O)C[C@@H]1C
  i	/	/	/	0	0	-0.1	/	2.5
> O=C(Nc1ccccc1-c1ccccc1)c1cnccn1
  /	0.73	-2%	-2.4	/	/	/	1	/
> Cc1ccc(S(=O)(=O)N2CCOCC2)cc1NC(=O)CN(C)CC(=O)Nc1cccc(F)c1
  i	/	/	1.2	0	-1	0.5	/	1.0
> COc1ccc(CC2(CO)CCN(S(=O)(=O)c3cccc4cccnc34)CC2)cc1
  i	0.71	-2%	0.3	-27	-30	-3.1	-8	-4.1
> COC(=O)c1cccc(C(=O)N2CCC(CO)(CCc3ccccc3)CC2)c1
  i	0.7	/	0.2	3	0	1.2	0	-11
> CC(=O)c1cccc(NC(=O)CSc2nc(C3CC3)nc3ccccc23)c1
  /	0.71	/	1.4	4	10	-2.7	-5	-5.5
> CC(c1ccccc1)C1CC(=O)N(Cc2ccccc2)C1=O (configuration not stated)
  i	0.73	/	3.4	-19	-13	-0.1	2	-1.0
> CCNCCNC(=O)c1c(O)c2ccccc2n(CC)c1=O
  /	0.64	3%	0.2	/	/	/	-11	/
> C[C@@H]1CN([C@@H](C)CO)C(=O)c2cc(C3=CCCCC3)cnc2O[C@@H]1CN(C)C(=O)c1ccccn1
  i	/	/	/	5	-2	-3.3	/	-5.3
> CCCc1cc(=O)oc2cc(C)cc(OCC(=O)Nc3ccccn3)c12
  i	0.69	4%	3.2	5	10	0.4	3	-3.8
> C[C@@H]1CCCCO[C@@H](CN(C)Cc2ccc(C(=O)O)cc2)[C@@H](C)CN([C@H](C)CO)C(=O)c2cc(NC(=O)CCCN(C)C)ccc2O1
  i	/	/	/	5	8	-0.5	/	-2.0
> O=C(NC(CO)(CO)CO)[C@@H]1CCCN1S(=O)(=O)c1cccc2cccnc12
  i	/	/	7.0	2	10	-2.5	-1	-4.4
> Cc1nnc(NC(=O)CSc2nnc(C(C)NC(=O)c3ccccc3F)n2C)s1 (configuration not stated)
  i	/	-5%	2.0	8	15	-0.7	-2	3.2
> CCOCCCNc1ccc(N2C(=O)C3CCCCC3C2=O)cc1[N+](=O)[O-] (configuration not stated)
  i	0.67	-6%	4.3	13	7	-2.5	-2	-0.4
> C[C@H](CO)N1C[C@H](C)[C@H](CN(C)Cc2ccc(C(=O)Nc3ccccc3N)cc2)Oc2ccc(NC(=O)Nc3ccc(C(F)(F)F)cc3)cc2C1=O
  i	/	/	/	0	-8	12	/	-4.2
> O=C(CC1CCCC1)N1CCN(S(=O)(=O)c2cccc(Br)c2)CC1
  i	/	2%	1.2	-8	-4	0.0	/	4.9
> O=C(COC(=O)C1CC(O)CN1S(=O)(=O)c1ccc(Cl)cc1)c1cccc(Cl)c1 (configuration not stated)
  /	0.71	12%	-0.1	/	/	/	7	/
> CC(=O)N(C)c1ccc(NC(=O)N2CCOCC2)cc1
  i	0.66	2%	-0.5	5	5	1.3	-6	-1.5
> C[C@H]1CN([C@@H](C)CO)C(=O)Cc2cc(NC(=O)CCN3CCOCC3)ccc2O[C@@H]1CN(C)CC1CC1
  i	/	/	/	4	5	-2.0	/	0.7
> Cc1ccc(/C=N/NC(=O)c2ccncc2)cc1
  i	/	-4%	0.9	8	10	-0.9	1	3.6
> COc1ccc(C(=O)CSc2nnc(-c3ccccc3)o2)cc1
  /	0.74	-9%	0.1	/	/	/	-3	/
> CCOc1ccc(CNc2nnnn2C)cc1
  i	0.73	/	1.4	5	1	-3.2	-10	-1.1
> Nc1ncnc2c1ncn2C1CCCO1 (configuration not stated)
  i	0.68	/	1.8	/	/	/	-8	-0.5
> CN(C)CC(=O)N[C@@H]1CC[C@@H](CCNC(=O)Nc2ccc(F)cc2)O[C@H]1CO
  i	/	/	/	2	3	-2.2	/	13
> CCOC(=O)C[C@@H]1OC[C@H](C(C)C)N1S(=O)(=O)c1ccc(C)cc1
  i	/	/	2.5	-4	4	1.4	/	/
> CC(C)(C)OC(=O)C[C@H]1C/C=C\C[C@@H](CC(=O)N(CCO)Cc2ccccc2)C(=O)NC[C@@H](c2ccccc2)OC1=O
  i	/	/	5.9	-2	-9	8.2	-3	-1.8
> Cc1cc(NC(=O)CSc2nc3ccccc3c(=O)n2Cc2ccc(F)cc2)no1
  /	0.61	-21%	2.1	/	/	/	-3	/
> N#Cc1ccc(-c2csc(NC3=NCCCCC3)n2)cc1
  i	0.68	/	-3.2	4	0	0.3	/	-0.3
> CC(=O)N1CCCCN2[C@H](CO)[C@H](c3ccc(-c4cccc(C)c4)cc3)[C@@H]2C1
  i	/	/	/	-2	5	2.4	/	2.0
> COc1ccc(Cl)cc1NC(=O)C1CC(c2ccccc2O)=NO1 (configuration not stated)
  i	0.67	/	-1.7	14	16	-5.4	-7	-1.4
> O=c1c(Br)c(NCc2ccccc2)cnn1-c1ccc(F)cc1
  i	0.66	-3%	1.6	-29	-28	-4.2	-11	0.1
> COc1ccc(NC(=S)NC(=O)/C=C/c2ccccc2)cc1
  i	0.71	/	-0.6	14	8	4.1	11	1.9
> O=C1Cc2ccccc2C(=O)N1Nc1ccccc1
  i	/	/	-0.5	19	22	3.7	/	0.5
> COc1ccc(S(=O)(=O)N(C)C[C@@H]2Oc3ccc(NC(=O)CCN4CCOCC4)cc3CC(=O)N([C@H](C)CO)C[C@H]2C)cc1
  i	/	/	/	0	4	-1.1	/	-3.1
> COCCCN(CC(=O)Nc1ccc(N2CCOCC2)cc1)S(=O)(=O)c1ccc(C)cc1
  i	0.67	-2%	2.7	9	6	1.3	-8	0.3
> CC(=O)N(C)c1ccc(NC(=S)NCC(C)C)cc1
  i	0.73	-3%	-1.9	18	11	0.7	1	-2.9
> CC(C)c1ccc(Nc2nc(CC(=O)O)cs2)cc1
  i	0.67	2%	3.3	1	0	0.5	12	-4.1
> CC(=O)NC(=S)Nc1sc2c(c1C#N)CCCCC2
  i	0.65	1%	-4.0	-46	-72	-22	/	-0.5
> Cc1c(C#N)c(O)n(C)c(=O)c1N=Nc1ccc(S(N)(=O)=O)cc1
  i	0.66	/	4.7	23	7	1.8	/	0.6
> CC(/C=N/NC(=O)c1nnn(-c2nonc2N)c1C)=C\c1ccccc1
  i	/	/	-1.6	7	3	-1.4	/	2.8
> C[C@@H]1CN([C@H](C)CO)C(=O)Cc2cc(NC(=O)C3CC3)ccc2O[C@H]1CN(C)C(=O)Nc1cccc2ccccc12
  i	/	/	/	4	10	0.5	/	0.5
> Cc1ccc(-n2nc(C)c3c2OC(N)=C(C#N)C3c2cccs2)cc1 (configuration not stated)
  /	0.71	10%	2.0	/	/	/	26	/
> CCCc1nc2c(nnn2Cc2ccccc2F)c(=O)[nH]1
  i	0.66	5%	-0.8	6	0	5.8	1	-33
> O=C(Nc1ccccc1N1CCCCC1)c1cccc(F)c1
  /	0.74	6%	2.5	/	/	/	63	/
> Cc1cc(Cl)ccc1OC(C)C(=O)NCCCn1ccnc1 (configuration not stated)
  i	0.69	-5%	0.6	9	4	-0.8	-1	-0.3
> COc1ccc(OC)c(-c2cc(C(=O)N3CCN(c4ccccc4)CC3)no2)c1
  i	0.67	-1%	-5.2	-6	-8	7.2	-3	-2.4
> CCc1cc(=O)oc2c(CN3CCN(C)CC3)c(O)ccc12
  /	0.67	-4%	2.2	8	11	-1.3	-3	0.7
> COc1ccc2oc(=O)cc(CN3CCOCC3)c2c1
  i	0.68	/	-0.7	18	15	0.5	-12	1.0
> Nn1c(SCC(=O)NCc2ccccc2)nncc1=O
  i	0.75	/	-3.2	26	7	0.1	/	-2.8
> C[C@@H]1CN([C@H](C)CO)C(=O)c2cc(NC(=O)Nc3ccc(C(F)(F)F)cc3)ccc2O[C@@H]1CN(C)C(=O)Nc1ccc2c(c1)OCO2
  i	/	/	/	4	9	0.0	/	1.4
> C[C@@H]1CN([C@H](C)CO)C(=O)Cc2cc(NC(=O)Nc3ccc(C(F)(F)F)cc3)ccc2O[C@@H]1CN(C)Cc1ccc(Cl)c(Cl)c1
  i	/	/	/	1	0	-1.6	/	-0.7

# New compounds follow:
# Below each SMILES: FGF22 binding	E coli growth	Vif TR-FRET	HNF4A DNA FP	Ecoli rRNA inh	Ecoli rRNA inh OD600	Ecoli rRNA inh RFP	ALR H2O2 inh	MLL AF4-AF9 inh
> CC1(C(=O)NCCC#N)CCN1C(=O)Cc1ccc(-c2ccccc2)cc1 (configuration not stated)
  i	/	/	-0.7	-1	8	3.7	/	-1.6
> Cc1cc2nc3c(=O)n(C4CCCCC4)c(=O)[nH]c3nc2cc1N
  /	0.72	31%	-96	/	/	/	/	/
> CCc1nnc(NC(=O)c2ccc(S(=O)(=O)N(C)c3ccccc3)cc2)o1
  i	0.71	5%	-0.3	-12	-9	-3.5	-15	1.3
> O=C(COC(=O)c1ccc(Cl)nc1)Nc1cc(S(=O)(=O)N2CCCCC2)ccc1Cl
  i	0.7	7%	-1.8	-7	3	-1.3	/	0.9
> CCN(CC)CCn1c(NC(=O)c2ccc(Cl)cc2)nc2ccccc21
  i	0.66	-1%	0.0	-1	-2	-0.2	2	-17
> Cc1ccc(NCc2nnc(SCC(=O)c3ccccc3)n2Cc2ccco2)c(C)c1
  /	0.71	4%	1.0	/	/	/	?	/
> C1CC1Cc1noc(CN2CCN(CC3CC3)CC2)n1
  i	0.69	32%	-1.8	14	6	-14	-5	-12
